# High-throughput results: PubChem, several laboratories
# Sa ugtP lethal: growth inhibition of S. aureus ugtP deletion strain; 330,000 tested, 0.54% active; growth inhibition, % (concentration not given with the values); S. aureus RN4220 ugtP deletion, OD600 growth, 16 h; some inactives read as strong as hits;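 active = z-score under -3 and OD600 up to 0.15 on both plates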;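 also: plate controls were untreated wells for no effect and antibiotic for full effect; wells of about 80 µL received 100 nL stock; the first replicate is given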
# BJeLR viability: BJeLR cell viability loss. BJeLR (HRASV12) viability, CellTiter-Glo ATP luminescence, 48 h; reference of the scale not given here. inhibition, % (concentration not given with the values). 300,000 tested, 0.17% active. AID 1554;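 active = replicate mean above 50%; inconclusive = above 50% but judged a plate artefact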;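 also: 50 nL library stock added to about 25 µL; numbers are from one replicate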
# PrP 5UTR inh: suppresses PrP 5' UTR mRNA reporter expression. cell-based PrP 5' UTR mRNA reporter, plate reader. inhibition, % (concentration not given with the values). 340,000 tested, 0.35% active;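 active = every replicate at 50% or more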;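 also: 0 = median of the neutral control wells; tested in H4 reporter cells; numbers are from one replicate; inactives centre near -14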
# Autofluor counter: flagged as autofluorescent in microsphere protease counterscreen. AID 624483. compound autofluorescence counterscreen, microsphere flow cytometry; hits give high values. 360,000 tested, 3.1% active. fluorescence intensity (no concentration beside the values);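 active = at least 3 SD above the mean of all compounds, about 16000 in these data; inconclusive = too few beads counted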;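 also: 100 nL of 1 mM stock went into each well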
# Mtb hypoxia rep: Mtb hypoxia fluorescent reporter inhibition; M. tuberculosis hypoxia-regulated fluorescent reporter, fluorescence; fluorescence inhibition, % (no concentration beside the values); 300,000 tested, 0.1% active;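 active = 35 to 45% if threefold the growth effect, above 45% if 1.5-fold the growth effect; inactive = the rest, general growth blockers included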;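 also: wells of about 50 µL received 100 nL stock; 0% = vehicle wells and 100% = reference inhibitor wells; whole bacteria with a GFP reporter of the hypoxia response; strong numbers were not always called active; many hits fall short of the cut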
# Sa RN4220 lethal: kills Staphylococcus aureus RN4220; S. aureus RN4220 growth, OD600, 16 h; inhibition, % (test concentration not listed); AID 1259311; 330,000 tested, 0.33% active;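 active = z-score of -3 or lower and OD600 up to 0.18 on both plates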;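 also: plate controls were untreated cells for no effect and reference antibiotic for full effect; stock transfer was 100 nL into about 80 µL; one replicate is shown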
# Mtb hypoxia rep growth: second read-out of Mtb hypoxia rep, no call of its own (marks repeat the call); growth inhibition, %; measured here: M. tuberculosis growth (absorbance);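 0% = vehicle and 100% = reference antibiotic; read after six days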
# Starred values were filed as active, the others as inactive; ? = inconclusive; / = no result given.
# Start of the data: the first 18 records, ahead of the listing:
# Values run as follows: Sa ugtP lethal	BJeLR viability	PrP 5UTR inh	Autofluor counter	Mtb hypoxia rep	Mtb hypoxia rep growth	Sa RN4220 lethal
COc1ccc2[nH]cc(C(O)CN3CCC(C(N)=O)CC3)c2c1 (centres undefined)
  7	2	-2	4773	15	9	-3.2
COc1ccc(N=Cc2ccccc2O)cc1
  -1	/	-8	3425	6	18	1.9
CCOC(=O)C(C)n1cnc2c(nnn2-c2ccc(F)cc2)c1=O (centres undefined)
  -5	7	-50	5742	4	6	3.8
O=c1c2c3c(sc2nc2sc(CN4CCOCC4)cn12)CCCC3
  -3	/	-35	4313	/	/	-1.9
CCOC(=O)NC(c1ccccc1)C1CCCCC1=O (centres undefined)
  11	-2	-17	3586	/	/	0.8
COc1ccc(/C=C2/C(=O)N(c3ccccc3)N=C2C)cc1
  3	4	/	/	12	7	2.4
Brc1cnc2nc[nH]c2c1
  0	13	-9	3699	11	-1	3.6
COc1ccc(CNC(=O)CC(C)=NNC(=O)COc2ccc(C)cc2Br)cc1
  4	/	/	/	5	2	8.7
CC(=O)NC1C(=O)N(CCN2CCOCC2)c2ccc(Cl)cc21 (centres undefined)
  /	-2	-5	3643	/	/	/
Cc1cc(C(=O)Nn2cnc3ccccc3c2=O)ccc1[N+](=O)[O-]
  -6	-11	-39	2247	4	14	-0.7
O=C(NC1CC1)C1=C[C@H](c2ccc(Br)cc2)C[C@H](OCc2ccc(CO)cc2)O1
  /	17	-11	3842	/	/	/
Cc1nc2ncnn2c(C)c1CCC(=O)NCc1ccco1
  -6	-2	-21	5559	1	8	6.3
O=C(Nc1ccc2c(c1)OCO2)N1CCCc2ccccc21
  4	-4	-31	4599	1	-3	11
COC(=O)N/N=C\C=C\c1ccc2c(c1)OCO2
  /	-1	-54	2707	/	/	/
COc1cc(/C=N/NC(=O)c2ccc(=O)[nH]n2)ccc1O
  /	7	-20	2416	/	/	/
COc1cccc(NC(=O)/C=C/c2ccc([N+](=O)[O-])cc2)c1
  5	2	-31	4183	-10	13	3.8
Cc1ccc(-n2ncc3c(=O)n(CC(=O)N4CCN(c5ccccc5)CC4)cnc32)cc1
  9	-2	-21	3800	13	9	7.2
CCCn1nnnc1NCc1cccc(Cl)c1
  7	0	-42	4051	3	5	1.8

# The list itself, previewed entries included:
# Values run as follows: Sa ugtP lethal	BJeLR viability	PrP 5UTR inh	Autofluor counter	Mtb hypoxia rep	Mtb hypoxia rep growth	Sa RN4220 lethal
COc1ccc2[nH]cc(C(O)CN3CCC(C(N)=O)CC3)c2c1 (centres undefined)
  7	2	-2	4773	15	9	-3.2
COc1ccc(N=Cc2ccccc2O)cc1
  -1	/	-8	3425	6	18	1.9
CCOC(=O)C(C)n1cnc2c(nnn2-c2ccc(F)cc2)c1=O (centres undefined)
  -5	7	-50	5742	4	6	3.8
O=c1c2c3c(sc2nc2sc(CN4CCOCC4)cn12)CCCC3
  -3	/	-35	4313	/	/	-1.9
CCOC(=O)NC(c1ccccc1)C1CCCCC1=O (centres undefined)
  11	-2	-17	3586	/	/	0.8
COc1ccc(/C=C2/C(=O)N(c3ccccc3)N=C2C)cc1
  3	4	/	/	12	7	2.4
Brc1cnc2nc[nH]c2c1
  0	13	-9	3699	11	-1	3.6
COc1ccc(CNC(=O)CC(C)=NNC(=O)COc2ccc(C)cc2Br)cc1
  4	/	/	/	5	2	8.7
CC(=O)NC1C(=O)N(CCN2CCOCC2)c2ccc(Cl)cc21 (centres undefined)
  /	-2	-5	3643	/	/	/
Cc1cc(C(=O)Nn2cnc3ccccc3c2=O)ccc1[N+](=O)[O-]
  -6	-11	-39	2247	4	14	-0.7
O=C(NC1CC1)C1=C[C@H](c2ccc(Br)cc2)C[C@H](OCc2ccc(CO)cc2)O1
  /	17	-11	3842	/	/	/
Cc1nc2ncnn2c(C)c1CCC(=O)NCc1ccco1
  -6	-2	-21	5559	1	8	6.3
O=C(Nc1ccc2c(c1)OCO2)N1CCCc2ccccc21
  4	-4	-31	4599	1	-3	11
COC(=O)N/N=C\C=C\c1ccc2c(c1)OCO2
  /	-1	-54	2707	/	/	/
COc1cc(/C=N/NC(=O)c2ccc(=O)[nH]n2)ccc1O
  /	7	-20	2416	/	/	/
COc1cccc(NC(=O)/C=C/c2ccc([N+](=O)[O-])cc2)c1
  5	2	-31	4183	-10	13	3.8
Cc1ccc(-n2ncc3c(=O)n(CC(=O)N4CCN(c5ccccc5)CC4)cnc32)cc1
  9	-2	-21	3800	13	9	7.2
CCCn1nnnc1NCc1cccc(Cl)c1
  7	0	-42	4051	3	5	1.8
Cc1ccc(C)c2[nH]c(=O)c(CCNC(=O)c3ccc(Br)o3)cc12
  -1	0	-48	13221	12	1	9.6
O=C(OCc1nnc(-c2ccccc2)o1)C1CCN(C(=O)c2ccc(Cl)cc2)CC1
  -1	/	-14	5603	-8	-5	-1.0
COc1ccccc1-c1nn2c(C3COc4ccccc4O3)nnc2s1 (centres undefined)
  -14	-6	-21	5804	2	13	0.8
Cc1[nH]c2ccccc2c1C(=O)COC(=O)c1ccc[n+]([O-])c1
  1	8	-2	3983	14	4	3.1
Cc1ccnc(NC(=O)c2cc3c(=O)oc4ccc(C)cc4c3s2)c1
  11	8	-7	4575	-1	4	1.4
COCCCNC(=O)c1cc2c(-c3cccc(OC)c3)nn(C)c2s1
  3	3	4	4231	-5	7	1.6
CC(=NOC(=O)NC1CCCCC1)c1sc(-c2ccccc2)nc1C
  -7	/	/	/	13	24	12
CC1CCN(c2ccccc2NC(=O)c2ccc([N+](=O)[O-])o2)CC1
  -3	-6	-3	4802	-13	4	6.3
COc1ccc(C(=O)Oc2ccc(/C=N/O)cc2)cc1
  /	5	-54	8423	/	/	/
Fc1cccc(Cn2ccc(-c3ccc4c(c3)OCO4)n2)c1
  8	4	-39	?	13	6	4.2
N#CC1(C#N)C(C(N)=O)C1c1ccccc1 (centres undefined)
  4	-7	-22	2573	2	6	-2.5
O=C(NN1CCOCC1)c1cc(-c2ccc(Br)s2)nc2ccccc12
  9	8	-25	4463	0	6	4.0
C=CCSc1n[nH]c(-c2cccs2)n1
  12	0	-14	3616	3	-6	4.9
O=C(CCCN1C(=O)/C(=C/c2ccc3c(c2)OCO3)SC1=S)Nc1ccc(C(=O)O)cc1
  0	2	13	4411	10	15	16
Cc1ccc(C)c(NC(=O)CN(C)C(=O)c2ccc(S(=O)(=O)N(C)c3ccccc3)cc2)c1
  3	/	-5	4342	3	-4	4.2
CCOc1ccccc1N1CCN(C(=O)CNC(=O)c2ccc(OC)c(OC)c2)CC1
  -4	10	7	3898	-4	6	-3.5
Cc1cc(NC(=O)C(C)C)ncc1NC(=O)c1cccc(F)c1
  1	-6	-2	3964	/	/	-2.4
CCCn1c(C(C)Nc2nc(C)cs2)nc2cc(Cl)c(Cl)cc21 (centres undefined)
  1	-1	-8	3931	9	12	1.0
CCOc1ccccc1CN1CCN(CCCn2cccn2)CC1CCO (centres undefined)
  0	3	-54	2496	3	-4	1.7
O=C(OCC1CC(c2ccccc2)=NO1)c1ccc(Br)cc1 (centres undefined)
  4	-17	-11	2502	15	7	3.3
COc1ccc(Cl)cc1NC(=O)CSc1nc(=O)n(CCN(C)C)c2c1CCCC2
  -7	2	-11	6806	7	5	-0.9
CCc1cccc(NC(=O)c2cccc3c2C(=O)N(CC2CCCO2)C3)c1 (centres undefined)
  -5	8	-3	6318	5	9	11

# As a working copy, two of the compounds above.
# Values run as follows: Sa ugtP lethal	BJeLR viability	PrP 5UTR inh	Autofluor counter	Mtb hypoxia rep	Mtb hypoxia rep growth	Sa RN4220 lethal
COc1ccc(Cl)cc1NC(=O)CSc1nc(=O)n(CCN(C)C)c2c1CCCC2
  -7	2	-11	6806	7	5	-0.9
CCc1cccc(NC(=O)c2cccc3c2C(=O)N(CC2CCCO2)C3)c1 (centres undefined)
  -5	8	-3	6318	5	9	11

# The list continues:
# Values run as follows: Sa ugtP lethal	BJeLR viability	PrP 5UTR inh	Autofluor counter	Mtb hypoxia rep	Mtb hypoxia rep growth	Sa RN4220 lethal
O=C(Nc1ccc(Br)cc1)c1cccnc1N1CCOCC1
  4	-4	-19	5509	-3	9	-0.1
O=C1c2cccc([N+](=O)[O-])c2C(=O)N1c1c[nH]c(=O)[nH]c1=O
  1	-3	-6	2393	-12	-3	2.6
COc1cccc(NC(=O)c2ccccc2N(Cc2ccccc2)S(C)(=O)=O)c1
  6	3	-10	3724	5	-5	5.5
CC1CN(C(=S)Nc2ccc(SC(F)F)cc2)CC(C)O1 (centres undefined)
  /	2	-12	5967	/	/	/
COCCCNC(=S)NCCNc1nc2c(C)c(C)ccc2cc1C#N
  -14	/	-9	4217	-8	-1	-5.7
Cc1cc(O)c(Oc2cc(C)cc(O)c2O)c(O)c1
  -4	-2	-42	5674	/	/	7.4
COc1ccc(CC(=O)NN=C(C)c2cccs2)cc1
  2	/	/	/	5	2	-1.8
CC(C)CN(C)C(=O)CCc1nnc(Cc2cccc(C(F)(F)F)c2)o1
  1	-2	-68	4189	3	1	-0.5
Fc1cc(NCc2ccccc2)nc(NCc2ccccc2)n1
  /	-11	-23	2724	/	/	/
O=C(COc1ccc(Br)cc1)Nc1ccc(CN2CCOCC2)cc1
  9	3	-14	5981	2	-6	2.3
Cc1cc(C)n(C(=O)c2c([N+](=O)[O-])c(C)nn2C)n1
  4	5	-5	24146*	2	8	3.1
COc1ccc(C=NNC(=O)c2ccc[nH]2)cc1
  3	/	/	/	9	4	3.5
Cn1c(SCC(=O)c2ccccc2)nnc1-c1ccco1
  1	-10	-37	?	/	/	-0.1
CCCc1cc(C(=O)N2CCCC(C(=O)c3cc(C)c(OC)c(C)c3)C2)n(C)n1 (centres undefined)
  3	6	-10	5392	-3	-2	2.4
CN1CCc2nc(SCc3ccc(C(C)(C)C)cc3)c(C#N)cc2C1
  55	0	-34	8788	14	21	1.3
Cc1ccc(C(C)(C)C)cc1S(=O)(=O)Nc1nc2ccccc2nc1Cl
  46	9	-16	3940	7	6	34
COc1ccc(N2CCN(Cc3cc(=O)oc4cc(C)c(Cl)cc34)CC2)cc1
  9	-13	0	5117	/	/	-2.8
COc1ccc(OC)c(N(CC(=O)Nc2ccccc2F)S(=O)(=O)c2ccccc2)c1
  -1	3	3	3906	0	4	5.4
Cc1ccccc1C(=O)NC(=S)NCCN1CCOCC1
  4	-1	-7	2436	5	2	0.9
COc1ccc(OC)c(C2N(c3cc(C)on3)C(=O)C3CCCN32)c1 (centres undefined)
  9	-2	-8	3298	20	7	3.5
Cc1ccc(C)c(NC(=O)c2ccc3ccccc3n2)c1
  -10	3	-77	2634	/	/	-2.0
COc1ccc(/C=C(\NC(=O)c2cccs2)C(=O)NCc2ccco2)cc1OC
  4	-2	/	6086	10	5	2.8
